Compound activity (PubChem BioAssay)
D2 ag – activates the human D2 dopamine receptor | P14416 | DiscoveRx PathHunter D2 beta-arrestin, luminescence, 90 min; 100% = 57 uM dopamine signal | activation, % (no concentration beside the values) | hit rate 0.084% among 360,000 | AID 624465; in the data active = activation above about 40%; inconclusive = about 15% to 40%; inactive = below about 15%; note: compound concentration not given in the record; the text of the record calls up to 30% inactive
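DiscoveRx PathHunter D2 beta-arrestin cells (2,100/well) attached overnight, then compound-stimulated 90 min at 37 C in HBSS/10 mM HEPES/0.1% Tween-20 buffer; beta-galactosidase complementation read by luminescence after 1 h at ambient temperature. Dopamine 57 uM final (EC100) as control.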
TRPML1 ag – activates the human TRPML1 channel; Q9GZU1; TRPML1-expressing cells, Ca2+ dye fluorescence, FDSS; host cell line not named in the record; reference of the full effect not given here; activation, % (concentration not given with the values); hit rate 0.12% among 410,000; AID 624414; in the data active = activation above about 50%; inconclusive = about 30% to 50%; inactive = below about 30%; note: 0% is about no effect; the text of the record puts the active cut at 80%
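Agonist activity was taken from a 110 s kinetic Ca2+ dye read on the FDSS after pinning compounds onto TRPML1-DL cells. The cells were seeded at 1,500/well with Tet inducer, incubated about 16 h, then dye-loaded at room temperature.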
Six1-Eya2 inh – blocks human Six1 binding to Eya2; hit rate 0.56% among 360,000; activity change, % (no concentration beside the values); Q15475+O00167; AlphaScreen GST-Six1/His-Eya2 binding, biochemical; hits give low values; control for the full effect not named in the record; AID 651725; in the data active = activity change below about -65%; inconclusive = about -30% to -65%; inactive = above about -30%; note: % is set by controls: 0 for no effect and ±100 for the full control effect; compound concentration not given in the record
Target sequence (O00167 whole entry, looked up): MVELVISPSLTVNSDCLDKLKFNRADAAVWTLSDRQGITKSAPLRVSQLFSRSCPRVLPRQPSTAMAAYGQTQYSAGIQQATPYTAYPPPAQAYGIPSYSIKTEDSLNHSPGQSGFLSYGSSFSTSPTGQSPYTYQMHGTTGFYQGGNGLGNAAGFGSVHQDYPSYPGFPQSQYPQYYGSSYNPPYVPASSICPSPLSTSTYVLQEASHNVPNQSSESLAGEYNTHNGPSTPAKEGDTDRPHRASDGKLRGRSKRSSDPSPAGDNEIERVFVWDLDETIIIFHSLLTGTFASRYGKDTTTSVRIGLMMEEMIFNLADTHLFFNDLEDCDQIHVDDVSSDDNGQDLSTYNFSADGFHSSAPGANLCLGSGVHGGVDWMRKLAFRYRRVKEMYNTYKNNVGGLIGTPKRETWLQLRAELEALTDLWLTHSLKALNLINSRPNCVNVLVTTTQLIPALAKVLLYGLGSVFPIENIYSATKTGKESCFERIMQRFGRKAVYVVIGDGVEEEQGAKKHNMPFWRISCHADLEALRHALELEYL
Target sequence (Q15475 whole entry, looked up): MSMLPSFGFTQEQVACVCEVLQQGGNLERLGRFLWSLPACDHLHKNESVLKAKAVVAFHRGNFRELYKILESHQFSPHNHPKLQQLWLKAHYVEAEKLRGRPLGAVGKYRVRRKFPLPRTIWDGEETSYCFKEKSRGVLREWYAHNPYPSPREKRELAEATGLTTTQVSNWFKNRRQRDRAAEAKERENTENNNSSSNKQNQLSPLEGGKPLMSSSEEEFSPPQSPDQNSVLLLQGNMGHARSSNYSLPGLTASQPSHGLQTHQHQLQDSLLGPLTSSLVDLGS
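Homogeneous AlphaScreen proximity assay pairing GST-Six1 with His-tagged Eya2 (added as 5X mix: 250 nM and 500 nM) in 50 mM Tris pH 8.0, 300 mM NaCl, 1 mM TCEP. Glutathione donor and nickel acceptor beads; 1 h, 37 °C, dark.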
PINK1 expr mod – PINK1 expression modulation; AID 624263; Potency, µM (doses to about 76.6 µM), for the others: at the highest dose activation (PINK1 increase), actives largely listed as activators; hit rate 0.2% among 410,000; PINK1 immunofluorescence, high-content cytometry, 24 h; active = well fitted activation curve with a large enough effect; inconclusive = small, poorly fitted or top-dose-only effect; inactive = flat fitted curve, though single readings scatter; cell line not stated here;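 note: potency is the fitted concentration of half-maximal effect; % of control where 0% means no effect; nearly all actives have a fitted effect of over 65% in size; a mitochondrial uncoupler was the plate control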
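Cells are seeded, rested 12 hours, then given compound at five concentrations or DMSO for 24 hours. After fixation, blocking and antibody staining, PINK1 amount and mitochondrial localization are scored; CCCP serves as control.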
D2 potentiator – positive allosteric modulators of human D2 dopamine receptor | DiscoveRx D2 beta-arrestin cells, luminescence, 90 min; 100% = 57 uM dopamine signal | potentiation, % (test concentration not listed) | hit rate 0.23% among 360,000; active = potentiation of 50% or more; inconclusive = 30% to 50%; inactive = 30% or less;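 note: compound concentration not given in the record; tested on top of an EC20 dose of dopamine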
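PathHunter beta-arrestin assay in DiscoveRx D2 cells. Compounds were added with an EC20 of dopamine (50 nM final) for 90 min at 37 deg C. Luminescence was read 1 h after detection reagent, with 57 uM dopamine as the EC100 control.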
CtBP-E1A inh – blocks the CtBP interaction with E1A; activity change, % (concentration not given with the values); hit rate 0.49% among 340,000; AlphaScreen GST-E1A/His-CtBP binding, 1536-well; hits give low values; control for the full effect not named in the record; in the data active means activity change below about -65%; inconclusive means about -30% to -65%; inactive means above about -30%; note: % is set by controls: 0 for no effect and ±100 for the full control effect
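GST-E1A and His-tagged CtBP (125 nM each as 5X stock) were preincubated with pin-transferred compound for 2 h at 37 °C in the dark, then glutathione donor and nickel acceptor beads were added for 1 h before AlphaScreen reading.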
An asterisk follows results filed as active; ? = inconclusive; · = not tested or not shown; & = joins results of further samples; [ ] = dose if it differs, or a comment. An unsorted share of the library; about 1.3% have a hit in one of these screens.

Letters – A = D2 ag; B = TRPML1 ag; C = Six1-Eya2 inh; D = PINK1 expr mod; E = D2 potentiator; F = CtBP-E1A inh
SMILES: C[C@H](CO)N1C[C@H](C)[C@@H](CN(C)S(=O)(=O)c2cccs2)Oc2ccc(NC(=O)CCC(F)(F)F)cc2C1=O
  A: -0.3; B: -0.1; C: -4.9; D: 1.1%; E: 2.5; F: -7.4

SMILES: CC(C)CC(=O)NC(=S)Nc1ccc(S(=O)(=O)NC(C)(C)C)cc1
  A: 0.0; B: 3.0; C: 6.6; D: -0.6%; E: -1.3; F: 0.1

SMILES: Cc1ccc(S(=O)(=O)NCCCNC(=O)N2CCOCC2)cc1
  A: -4.9; B: -0.3; C: -2.7; D: ·; E: -17.5; F: -4.4

SMILES: Cc1occc1C(=O)Nc1cc(=O)n(C)c(=O)n1C
  A: -1.9; B: 0.1; C: -1.6; D: -0.6%; E: -6.4; F: 0.1

SMILES: CC1=C(C(=O)N2CCOCC2)CC(CC(=O)NCc2ccco2)C(=O)N1CCC1=CCCCC1 (stereo unspecified)
  A: -4.3; B: -0.2; C: -2.3; D: -1.9%; E: -1.3; F: -2.6

SMILES: COC(=O)C1=C(C(=O)OC)C(c2ccccc2O)c2sc(=O)[nH]c2S1 (stereo unspecified)
  A: -4.6; B: 0.1; C: 7.5; D: 0.5%; E: -6.1; F: -3.6

SMILES: COc1ccc(-c2csc(NNC3=NCCCCC3)n2)cc1
  A: -10.2; B: -0.5; C: 0.2; D: 5.9%; E: -15.3; F: ·

SMILES: Cc1nn(-c2ccccc2)cc1/C=N/NC(N)=S
  A: 1.8; B: 0.7; C: -16.2; D: -0.3%; E: 2.1; F: -5.8

SMILES: O=C(O)C(=Cc1ccccc1)Cc1ccccc1
  A: 0.2; B: 0.8; C: 5.2; D: 1.7%; E: 0.3; F: 1.3

SMILES: O=C(CSc1nc2ccccc2c(=O)n1Cc1ccc(F)cc1)NCc1cccs1
  A: -6.9; B: 1.0; C: 8.7; D: 10.4%; E: -4.8; F: 1.2

SMILES: COc1cc(NC(=O)CC2NCCNC2=O)cc(OC)c1 (stereo unspecified)
  A: 0.4; B: 0.7; C: 1.7; D: 9.3%[38.3 µM]; E: -1.1; F: -1.4

SMILES: Cc1ccc(N(C(=O)c2ccco2)C(C(=O)NC2CCCC2)c2cccnc2)cc1 (stereo unspecified)
  A: 5.4; B: 1.1; C: 1.1; D: -0.8%; E: 11.3; F: 1.5

SMILES: O=C(/C=C/[C@H]1O[C@@H](n2cnc3c(NC(=O)c4ccccc4)ncnc32)[C@H](O)[C@@H]1O)NC1CCCCC1
  A: -4.0; B: -0.6; C: -0.1; D: 1.5%; E: -9.4; F: 0.0

SMILES: O=[N+]([O-])c1cc2c(c(CSc3nnnn3-c3ccc(O)cc3)c1)OCOC2
  A: -0.5; B: 0.1; C: -16.1; D: 0.6%; E: 5.3; F: -2.9

SMILES: C=C(C)c1nc2cc(OC)c(OC)cc2c(=O)o1
  A: -4.8; B: -0.3; C: -7.4; D: 0.6%; E: -0.7; F: -1.7

SMILES: O=C(O)C1CSC(c2ccncc2)N1 (stereo unspecified)
  A: -4.3; B: -0.3; C: 6.7; D: -1.1%; E: -10.1; F: 0.4

SMILES: CC(C)c1nc(SCc2ccccn2)c2c(=O)n(C)c(=O)n(C)c2n1
  A: -8.7; B: 0.6; C: -1.4; D: 2.4%; E: -11.4; F: 3.0

SMILES: Cc1ccc(C(=O)Nc2ncccc2C)cc1S(=O)(=O)N1CCOCC1
  A: -3.0; B: -1.8; C: -2.1; D: -1.2%; E: 8.2; F: ·

SMILES: CCOC(=O)CSc1nc2c(c(=O)n(Cc3ccccc3Cl)c(=O)n2C)n1C
  A: 0.1; B: 2.6; C: -1.0; D: -0.5%; E: -2.1; F: -5.3

SMILES: CC(=O)NC(O)C(=O)c1ccccc1 (stereo unspecified)
  A: -1.6; B: 0.0; C: 4.9; D: 7.1%; E: 3.2; F: -0.8

SMILES: Cc1cc(C(=O)OCC(=O)N(C)c2ccccc2)c(C)o1
  A: -2.1; B: 1.7; C: -0.6; D: 0.1%; E: 1.9; F: 3.7

SMILES: O=C(CCS(=O)(=O)c1ccc(F)cc1)Nc1nccs1
  A: -2.1; B: -0.3; C: 12.0; D: 3.8%; E: -13.9; F: -0.7

SMILES: Cc1ccccc1NC(=O)/C=C/c1cccc(C(F)(F)F)c1
  A: -0.3; B: 0.6; C: 0.2; D: 9.8%[38.3 µM]; E: -8.2; F: 10.1

SMILES: O=C(Oc1ccc(-c2nnco2)cc1)N1CCOCC1
  A: -1.8; B: 2.4; C: 2.3; D: -0.9%; E: 5.1; F: 8.2

SMILES: COc1cc(NC(=O)c2cccc(Cl)c2)c(OC)cc1NC(=O)CN1CCOCC1
  A: -1.3; B: -1.7; C: -16.0; D: -1.2%; E: ?; F: -13.6

SMILES: CC(=O)Nc1ccc(NS(=O)(=O)C(F)(F)F)cc1
  A: -2.0; B: -0.1; C: 4.7; D: 0.3%; E: -1.2; F: 7.5

SMILES: Cc1ccc(NC(=O)[C@@H]2CCCN2S(=O)(=O)c2ccc(Cl)cc2)cc1
  A: 0.3; B: 0.9; C: 5.3; D: -0.6%; E: -31.6; F: 5.8

SMILES: O=C(O)CCN1C(=O)c2ccc(NC(=O)C(c3ccccc3)c3ccccc3)cc2C1=O
  A: -3.1; B: -0.2; C: 0.1; D: 2.5%; E: -6.8; F: 4.1

SMILES: CCOC(=O)CNc1c(-c2ccc(F)cc2)nc2cnccn12
  A: 0.1; B: 1.8; C: 1.5; D: -2.4%; E: -7.7; F: -8.6

SMILES: Cc1ccc(NC(=O)CN2C(=O)C3CC=CCC3C2=O)cc1S(=O)(=O)N1CCOCC1 (stereo unspecified)
  A: -0.3; B: -0.5; C: -0.4; D: 0.6%; E: 3.7; F: 2.4

SMILES: O=C(c1ccccc1NS(=O)(=O)c1ccc(F)cc1)N1CCOCC1
  A: -0.8; B: 0.8; C: 6.8; D: 2.4%; E: -9.1; F: -3.7

SMILES: CCc1cccc(CC)c1N1C(=O)COCC1=O
  A: -3.2; B: -0.7; C: 2.7; D: -0.2%; E: -0.8; F: 5.5

SMILES: COc1ccc(NC(=O)CN2C(=O)CSc3ccc(S(=O)(=O)N4CCCC4)cc32)cc1OC
  A: 2.4; B: 0.9&-1.0; C: -8.5; D: -0.8%&0.2%; E: -7.7; F: -12.8

SMILES: N#Cc1cc2cc3c(cc2nc1SCC(=O)N1CCCC1)OCCO3
  A: -2.9; B: 1.0; C: 7.8; D: -0.3%; E: -3.4; F: -3.2

SMILES: CN(C)/C(CN1CCN(C=O)CC1)=C1\N=C(c2ccccc2)OC1=O
  A: 4.0; B: -0.1; C: -3.1; D: 0.4%[38.3 µM]; E: 5.8; F: -6.0

SMILES: COc1ccccc1-c1nnc(NC(=O)CCS(=O)(=O)c2ccccc2)o1
  A: -8.6; B: 0.4; C: -16.4; D: 5.9%; E: -15.9; F: -8.6

SMILES: Cc1ccc(C2=NN(C(=O)CCCC(=O)O)C(c3ccc4c(c3)OCO4)C2)cc1 (stereo unspecified)
  A: -4.5; B: 0.1; C: 4.6; D: -0.1%; E: -1.1; F: -1.0

SMILES: Cc1ccccc1CSc1nnc(CCCCCNC(=O)OC(C)(C)C)o1
  A: 1.9; B: 2.8; C: 11.0; D: 1.0%; E: -2.8; F: 14.4

SMILES: COc1ccc(CCNC(=O)CCn2c(=O)c3ccccc3n(CC(=O)NCC3CCCO3)c2=O)cc1OC (stereo unspecified)
  A: -2.5; B: ·; C: -0.8; D: 1.1%; E: -2.8; F: 11.3

SMILES: COc1ccc(C(=O)NCc2ccc(N3CCN(C)CC3)cc2)cc1
  A: -0.9; B: -0.3; C: 11.8; D: 4.0%; E: -11.5; F: -0.2

SMILES: O=C(O)c1cc(-c2ccc(/C=C3/SC(=S)N(Cc4ccccc4)C3=O)o2)ccc1Cl
  A: 0.8; B: 1.8; C: -10.9; D: 6.7%; E: -5.0; F: 2.0

SMILES: COC(C/C=C\[C@H](O)COCc1ccccc1)OC
  A: 1.7; B: -0.5; C: -2.0; D: -0.1%; E: -3.1; F: 0.1

SMILES: O=C(NC1CCSc2ccccc21)c1cccc(Br)c1 (stereo unspecified)
  A: 1.8; B: 1.0; C: -1.2; D: 0.1%; E: -4.7; F: -3.1

SMILES: COc1cc(-c2nc3ccccn3c2/N=C/c2ccc(F)cc2)ccc1O
  A: 14.2; B: -0.4; C: -9.6; D: 2.2%; E: 22.9; F: -4.9

SMILES: Cc1ccc(Sc2c(C#N)c(-c3ccccc3)nn2C)cc1
  A: 1.0; B: 3.3; C: 51.0; D: 10µM*; E: -0.9; F: 66.7

SMILES: N#Cc1c(NC(=O)CSc2nnnn2C2CCCCC2)sc2c1CCCC2
  A: -1.1; B: -0.5; C: 2.7; D: -0.2%; E: -15.6; F: -23.2

SMILES: COc1ccc(OC)c(-c2csc(NC(=O)CN3C(=O)C4CCCCC4C3=O)n2)c1 (stereo unspecified)
  A: -3.0; B: 1.6; C: 12.0; D: -0.4%; E: -18.3; F: 1.7

SMILES: COc1ccc(C2=NS(=O)(=O)N(C)C(C(=O)N3CCN(C)CC3)=C2)cc1
  A: -5.0; B: -0.5; C: 5.4; D: 0.5%; E: -6.0; F: 0.1

SMILES: O=C(C1CCCN(S(=O)(=O)c2ccc(F)cc2)C1)N1CCCCCC1 (stereo unspecified)
  A: 1.9; B: -0.2; C: -0.8; D: 0.4%; E: 4.5; F: 0.7

SMILES: CCOC(=O)CNC(=S)N(Cc1cccs1)C1CCCCC1
  A: -1.0; B: 1.5; C: 9.7; D: -0.5%; E: -9.6; F: 3.1

SMILES: COc1ccc(CCN=C(N)NS(=O)(=O)c2ccc(C)cc2)cc1OC
  A: -3.4; B: 0.4; C: -4.0; D: -1.1%; E: -0.8; F: -15.7

SMILES: CCOc1ncccc1C(=O)NCCc1ccc(Cl)cc1
  A: 1.0; B: -1.5; C: 9.9; D: 4.1%; E: -8.1; F: 15.8

SMILES: COc1ccc(C2(C(=O)Nc3cc(C)on3)CCOCC2)cc1
  A: -4.0; B: -0.8; C: -4.1; D: 1.7%; E: -0.8; F: 4.9

SMILES: S=C1CC2CCCC(C2)N1 (stereo unspecified)
  A: 4.7; B: -0.1; C: 2.6; D: 1.6%; E: -2.4; F: 11.4

SMILES: COc1ccccc1/C=C(/NC(=O)c1ccccc1)C(=O)NCCN1CCOCC1
  A: -2.6; B: 0.3; C: 2.8; D: 0.8%; E: -9.1; F: -8.6

SMILES: Cc1ccc(C(=O)c2coc3c2C(=O)C(=O)c2ccccc2-3)cc1
  A: ?; B: 8.5; C: -7.0; D: 11.6%[38.3 µM]; E: 63.7*; F: -7.6
